RE007 growth inh: qHTS Assay for Inhibitors of the HIV-1 protein Vpr; S. pombe RE007 Vpr strain, BacTiter-Glo ATP luminescence, 24 h; control for the full effect not named in the record; Potency, µM (highest dose often 92.2 µM), inactives show top-dose activity change, negative = less growth; actives 0.21% (n = 360,000); AID 651644, 2012; active = well fitted falling curve with a large enough effect; inconclusive = small, poorly fitted or top-dose-only effect; inactive = no such curve, though single readings can be large or run the other way;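 also: % is scaled to controls: 0 for no effect and ±100 for the full control effect; nearly all actives have a fitted effect of over 50% in size; the assay follows cell death caused by Vpr and the record does not say whether a fall means rescue or toxicity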
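Fission yeast strain RE007, carrying one chromosomally integrated HIV-1 vpr copy, was seeded at OD 0.01 in PMG+AL medium with 23 nL pinned compound. After 24 h at 30 °C and 99% humidity, viability was read by BacTiter-Glo luminescence.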
Cruzain noTriton: qHTS Assay for Promiscuous and Specific Inhibitors of Cruzain (without detergent) | purified cruzain, Z-FR-AMC fluorescence, no detergent | Potency, µM, without a hit: max response, negative = inhibition, hits mostly inhibitors | actives 2.3% (n = 200,000) | AID 1476, 2009;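 also: plate controls were enzyme without inhibitor for no effect and buffer without enzyme for full effect; nearly all actives have a fitted effect of over 40% in size; top concentration of the series not given in the record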
Target sequence (P25779 123-467 limits assumed): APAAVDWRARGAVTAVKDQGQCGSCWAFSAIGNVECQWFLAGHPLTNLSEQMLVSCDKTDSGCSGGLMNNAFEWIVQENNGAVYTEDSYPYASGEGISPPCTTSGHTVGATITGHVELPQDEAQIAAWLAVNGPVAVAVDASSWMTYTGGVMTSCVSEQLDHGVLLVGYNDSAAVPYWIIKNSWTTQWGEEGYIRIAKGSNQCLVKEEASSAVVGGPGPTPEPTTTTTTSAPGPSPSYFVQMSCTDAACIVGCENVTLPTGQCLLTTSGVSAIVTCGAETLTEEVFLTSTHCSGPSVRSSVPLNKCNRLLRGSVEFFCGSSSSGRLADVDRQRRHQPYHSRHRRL
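Detergent-free condition (0.00005% Triton X-100) in acetate buffer pH 5.5 with DTT. 1.5 nM enzyme and compound were pre-mixed 15 min, then 2 uM Z-FR-AMC substrate added; reaction progress from fluorescence change between first and third reads (60 s).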
Marburg entry inh: qHTS for inhibitors of binding or entry into cells for Marburg Virus; Potency, µM (titrated, usually from 37.8 µM), inactives show top-dose activity change, negative = inhibition, most hits filed as inhibitors; AID 540276, 2011; Marburg virus pseudotyped entry inhibition, cell reporter; control for the full effect not named in the record; about a third of the inactives were read at about 46 µM; actives 1.8% (n = 300,000); active = well fitted inhibition curve with a large enough effect; inconclusive = small, poorly fitted or top-dose-only effect, or effect the other way; inactive = flat fitted curve, though single readings scatter; tested in HEK293 cells; about a fifth of its hits are not listed in these tables; also: % is scaled to controls: 0 for no effect and ±100 for the full control effect; luciferase read-out
LASV entry inh: qHTS for Inhibitors of binding or entry into cells for Lassa Virus; Potency, µM (doses to about 37.9 µM), without a hit: at the highest dose activity change, negative = inhibition, actives largely listed as inhibitors; AID 540256, 2011; actives 1.2% (n = 300,000); Lassa virus pseudotype entry inhibition, cell reporter; control for the full effect not named in the record; active means well fitted inhibition curve with a large enough effect; inconclusive means small, poorly fitted or top-dose-only effect, or effect the other way; inactive means flat fitted curve, though single readings scatter; tested in HEK293 cells; also: % is scaled to controls: 0 for no effect and ±100 for the full control effect; nearly all actives have a fitted effect of over 50% in size; luciferase read-out
NS1 function inh: qHTS Assay for Inhibitors of Influenza NS1 Protein Function | S. cerevisiae slowed by influenza A NS1, growth recovery by OD600 | Potency, µM (series often up to 46.1 µM), without a hit: top-dose activity, positive = more growth | actives 0.4% (n = 270,000); active means well fitted rising curve with a large enough effect; inconclusive means small, poorly fitted or top-dose-only effect; inactive means no such curve, though single readings can be large or run the other way; also: nearly all actives have a fitted effect of over 50% in size
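S. cerevisiae expressing influenza A NS1, grown in glucose, washed, then diluted 1:100 into pH 6.0 -URA galactose medium with 23 nl compound. Growth recovery read as OD600; NS1-free strain serves as control.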
2A StopGo: High Throughput Screening for Foot and Mouth Disease Virus Antivirals; human cells with a luciferase reporter of 2A StopGo recoding; control for the full effect not named in the record; Potency, µM (series often up to 57.9 µM), without a hit: at the top dose signal change, negative = less light; actives 1.2% (n = 410,000); AID 1159524, 2015; active = well fitted falling curve with a large enough effect; inconclusive = small, poorly fitted or top-dose-only effect; inactive = no such curve, though single readings can be large or run the other way; tested in HEK293T cells; also: % is scaled to controls: 0 for no effect and ±100 for the full control effect; nearly all actives have a fitted effect of over 45% in size; luciferase light after 4 h
Cruzain inh Det: qHTS Assay for Promiscuous and Specific Inhibitors of Cruzain (with detergent). Potency, µM, without a hit: max response, negative = inhibition, hits mostly inhibitors. purified cruzain, Z-FR-AMC fluorescence, 0.01% Triton. actives 0.43% (n = 200,000);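 also: plate controls were neutral wells for no effect and buffer without enzyme for full effect; nearly all actives have a fitted effect of over 40% in size; top concentration of the series not given in the record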
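Z-FR-AMC hydrolysis (2 uM substrate) by cruzain (1.5 nM) monitored kinetically at ex 360/em 450 nm after 15 min room-temperature compound exposure; 0.01% Triton X-100, pH 5.5, 5 mM DTT.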
SARS PLpro yeast: qHTS of Yeast-based Assay for SARS-CoV PLP; S. cerevisiae expressing SARS-CoV PLpro, growth rescue; control for the full effect not named in the record; Potency, µM (titrated, usually from 32.9 µM), for inactives: top-dose activity, positive = growth rescue; actives 0.19% (n = 330,000); active means well fitted rising curve with a large enough effect; inconclusive means small, poorly fitted or top-dose-only effect; inactive means no such curve, though single readings can be large or run the other way; also: 0% is about no effect; nearly all actives have a fitted effect of over 55% in size; growth read by luminescence after 48 h
Numbers without * were called inactive; ? = inconclusive; / = not tested or not shown; & = joins results of further samples; [ ] = dose if it differs, or a comment. Unless noted, calls follow the shape of the dose curve; as a rule, active = well fitted curve in the direction sought with a large enough effect; inconclusive = small, poorly fitted or top-dose-only effect, or another doubt; inactive = no such curve, though single readings can be large; an effect the other way counts as inactive or inconclusive. Potency is read from the fitted curve at half-maximal effect. Not a hit list; any-hit rate near 4.7%.

SMILES	RE007 growth inh	Cruzain noTriton	Marburg entry inh	LASV entry inh	NS1 function inh	2A StopGo	Cruzain inh Det	SARS PLpro yeast
Cc1cccc(C)c1OCc1nnc(SCC(=O)NCc2ccccc2)o1	-12%	-3%	-25%	2%	-9%	-4%	1.0%	1%
CC(SCC(=O)Nc1ccc(F)cc1)c1nc2ccccc2c(=O)[nH]1 (stereo unspecified)	6%	/	6%	11%	0%	-8%	/	-9%
N#CCSc1nnc(COc2ccccc2)n1-c1ccccc1	4%	9%	3%	-4%	-2%	-15%	-3.3%	6%
COC(=O)c1cc2c(=O)n3ccccc3nc2n(C)c1=N	/	?	0%	/	-7%	/	11µM*	1%
Clc1cccc(Cl)c1Cn1nnc(-c2cccs2)n1	0%	-9%	17%	3%	1%	22%	0.7%	-9%
COc1ccc(CCNS(=O)(=O)c2csc(C(N)=O)c2)cc1OC	13%	/	-2%[46.1 µM]	1%[46.1 µM]	9%	-15%	/	1%
CCN(CC)c1ccc(NC(=O)CSc2nc(-c3cccs3)cc(C(F)(F)F)n2)cc1	/	15%	-2%[46.1 µM]	0%[46.1 µM]	/	-16%	-3.0%	/
Cc1ccccc1OCc1nnc(SCC(=O)Nc2ccc(N3CCOCC3)c(Cl)c2)n1C	-11%	?	26%	-5%	-3%	-6%	-0.4%	0%
O=c1[nH]c(=O)n(Cc2ccccc2)c2c1C(C(F)(F)F)(C(F)(F)F)N=C(c1ccco1)N2	1%	-7%	-6%	15%	0%	?	0.5%	1%
CN(C)c1nc2n(c(=O)n1)CCS2	7%	-1%	-17%	1%	-10%	-11%	1.3%	1%
O=S(=O)(NCc1ccccc1F)NCc1ccccc1F	6%	/	-6%[46.1 µM]	23%[46.1 µM]	/	59%[activator]	/	-2%
O=C(c1ccccc1)N1CCN(CCc2ccccc2)CC1	-5%	/	/	/	-3%	-17%	/	4%
CNc1nc(-c2ccc3c(c2)CCN3C(=O)c2ccccc2F)c(C)s1	-11%	/	?	-23%[46.1 µM]	0%	20%	/	-3%
CCc1cc(C(=O)NC(C)c2ccccc2)no1 (stereo unspecified)	/	3%	-25%[46.1 µM]	-10%[46.1 µM]	/	36%[activator]	-1.1%	/
Cn1c(SCC(=O)Nc2ccc(Br)cn2)nnc1C1CC1	9%	/	/	/	4%	3%	/	0%
c1ccc(-n2c(SCc3ccncc3)nnc2-c2ccco2)cc1	21%	-4%	?	-2%	2%	-22%	-0.2%	5%
Cc1ccc2oc3nc(C)c(C(=O)Nc4cccc(C(F)(F)F)c4)cc3c(=O)c2c1	-23%	-4%	0%	11%	0%	0%	-9.4%	2%
Clc1ccc(-c2csc(N/N=C/c3cccnc3)n2)c(Cl)c1	26%	-10%	?	7.3µM*	4%	-9%	-4.6%	-24%
O=C1CC(c2nnc(Cc3cccc(Cl)c3)o2)CN1c1ccccc1 (stereo unspecified)	/	-7%	0%[46.1 µM]	17%[46.1 µM]	/	5%	-1.3%	/
Cc1nn(C)cc1CNC(=O)Nc1cccc(Cl)c1	2%	-4%	13%	24%	5%	51%[activator]	2.9%	8%
CC(=O)Nc1cccc(C(=O)OCC(=O)NC(C)c2ccc(F)cc2)c1 (stereo unspecified)	-8%	/	?	-12%	/	-16%	/	1%
COc1ccc(-c2nc3nc(C)cc(=O)n3[nH]2)cc1	-9%	-11%	10%	-2%	9%	/	3.9%	5%
O=C1NC(=S)NC(=O)C1C/C=C/c1ccccc1	-14%	-7%	3%	-4%	10%	/	-0.6%	2%
CCCC(=NCc1ccccc1)C1=C(O)C(C(=O)OC)C(C)(C)CC1=O (stereo unspecified)	1%	12%	-10%	-22%	-9%	/	1.2%	7%
O=C(NCCCCc1ccccc1)c1ccc(Br)cc1	-8%	/	/	/	-39%	0%	/	-6%
CC(=O)c1ccc(-c2ccc([C@H]3[C@@H]4C=CCC[C@@]4(C)C(=O)N3Cc3ccccc3)c(F)c2)cc1	5%	/	/	/	8%	?	/	0%
COc1ccc(C(=O)NNC(=O)CCn2nnc(-c3ccc(Cl)cc3)n2)cc1OC	6%	/	0%[46.1 µM]	-25%	-5%	1%	/	1%
O=C(CNC(=O)c1ccccc1)N/N=C/c1ccc([N+](=O)[O-])s1	-12%	/	?	-29%	/	5%	/	6%
COc1cccc(C2C(C(=O)Nc3ccc(Cl)cc3)=C(C)Nc3nc4ccccc4n32)c1 (stereo unspecified)	/	-5%	-22%[46.1 µM]	-9%[46.1 µM]	/	0%	-3.2%	/
COc1ccccc1CNC(=O)Cc1ccccc1	2%	/	-6%	19%	9%	43%[activator]	/	/
CC1CCc2sc3nc(NCc4ccco4)n4ncnc4c3c2C1 (stereo unspecified)	-6%	-1%	0%	18%	-67%	-10%	-14%	-23%
Cc1ccc(CCCOC(=O)CN2CCCCC2)cc1	4%	/	17%[46.1 µM]	/	/	4%	/	1%
O=C(Nc1ccc(Cl)c(Cl)c1)Nc1nnc(CC2=CCCCC2)s1	-9%	25µM*	/	/	-2%	?	-1.4%	11%
Cc1cc(C)c2nc(N(CCCN(C)C)C(=O)c3ccc4c(c3)CCCC4)sc2c1	-5%	/	?	11µM*	/	?	/	4%
O=c1o[nH]c(-c2ccccc2)c1C=Nc1ccc(Cl)cc1	-16%	/	1%[46.1 µM]	19%	/	-11%	/	-5%
COc1ccc(CN2CCN(C(=O)C3CC(=O)N(C4CCCCCC4)C3)CC2)c(OC)c1OC (stereo unspecified)	8%	0%	-28%	-14%	-6%	?	1.9%	-3%
CCOc1ccccc1N1CCN(C(=O)c2cccc(S(=O)(=O)N3CCOCC3)c2)CC1	-5%	/	12%	-1%	/	-7%	/	3%
O=c1oc2c3c4c(cc2c2c1CCC2)OCCN4CCC3	2%	29%	2%	-5%	-43%	-22%	-21%	-18%
N#Cc1ccc(CSc2nnc(Nc3ccccc3)s2)cc1	?	-7%	-21%[46.1 µM]	11%	-13%	-25%	-4.3%	2%
CSc1ncc(CN2CCN(C(C)C)C(CCO)C2)cn1 (stereo unspecified)	5%	/	/	/	-2%	-11%	/	-2%
COc1ccccc1-c1cc(SC)c(C#N)c(=O)o1	9%	-2%	-36%	-20%	-6%	?	-1.2%	-58%
CC(=O)N1CCN(C(=O)c2cccc(S(=O)(=O)N3CCOCC3)c2)CC1	1%	/	16%	18%	/	1%	/	-1%
Cc1ccc(-c2cc(C(=O)NN3CCOCC3)c3cc(Br)ccc3n2)o1	-7%	/	0%	0%	3%	-19%	/	0%
CCN1CCN(C(=S)c2ccc(Cl)cc2)CC1	-4%	-1%	5%	-8%	2%	-21%	-5.0%	6%
COC(=O)Cn1c(C(F)(F)F)nc2ccccc21	7%	7%	0%	13%	3%	1%	1.3%	4%
CN(C)P(=NC(=S)c1cccn1C)(N(C)C)N(C)C	-13%	-11%	3%	16%	-10%	8%	-7.8%	/
Cc1cc(C)c2c(CN3CCCCC3)cc(=O)oc2c1	-12%	/	17%&17%[46.1 µM]	?	4%	23%	/	1%
COc1cc(SC)ccc1C(=O)Nc1ccc(OCC(=O)N2CCOCC2)cc1	3%	/	?	?	7%	?	/	0%
O=C1NC(c2ccc(-c3ccccc3[N+](=O)[O-])o2)C(C(=O)c2ccc(Cl)cc2)C(O)(C(F)(F)F)N1 (stereo unspecified)	-12%	?	-20%	?	-24%	?	-12%	-7%
CCCCNS(=O)(=O)c1ccc2nc(SCC(=O)Nc3cc(C)cc(C)c3)[nH]c2c1	10%	-3%	?	-76%	19%	17%	-11%	21%
Next results follow.
SMILES	RE007 growth inh	Cruzain noTriton	Marburg entry inh	LASV entry inh	NS1 function inh	2A StopGo	Cruzain inh Det	SARS PLpro yeast
CCOc1ccc(-c2cc3nc(C4CCN(C(=O)OC(C)(C)C)CC4)c(C(=O)O)cn3n2)cc1	-17%	?	-21%	4%	26%	?	-24%	-20%
Cc1ccc(NC(=O)CSc2nc3nccnc3c(=O)n2CCc2c[nH]c3ccccc23)cc1	/	9%	/	-16%[46.1 µM]	/	-12%	4.1%	/
OC(c1ccc(F)cc1)(c1ccc(F)cc1)[C@@H]1CCCN1	25%	-1%	-11%	11%	-5%	0%	4.3%	0%
COc1ccc(/C=C2\SC(=S)N(CC(=O)N3CCN(C)CC3)C2=O)cc1	-7%	/	0%	?	1%	12%	/	-1%
COc1cccc(CNC(=O)c2cc3ccc4cccnc4c3[nH]2)c1	/	-6%	/	?	/	31%[activator]	-10%	/
CC(C)CNC(=O)COC(=O)c1n[nH]c2ccccc12	-12%	/	-9%[46.1 µM]	-11%	-6%	22%	/	-2%
Cc1c(Cl)cnc(NC(=O)COC(=O)c2ccc([N+](=O)[O-])s2)c1Cl	?	-25%	-17%[46.1 µM]	14%[46.1 µM]	-39%	-8%	-14%	-114%
CCCC1=Nc2cc(C(=O)NCCN3CCOCC3)ccc2Sc2ccc(C)cc21	3%	/	/	/	-6%	-6%	/	-1%
Cc1cnc(CN(C)Cc2c(C(=O)N3CCc4ccccc4C3)nc3ccc(Cl)cn23)[nH]1	-16%	/	?	-12%	1%	-6%	/	-1%
O=C(NC1(C(F)(F)F)NC(=O)N(C2CCCCC2)C1=O)C1CC1 (stereo unspecified)	6%	/	9%[46.1 µM]	-1%[46.1 µM]	-3%	-21%	/	2%
COC(=O)c1ccccc1OCC(=O)N1CCN(c2ccc(Cl)cc2)CC1	-4%	3%	5%	6%	-7%	-21%	-2.5%	1%
COc1cccc(OC)c1C(=O)Nc1ccccc1N1CCCCC1	19%	/	?	-28%	-57%	?	/	3%
CCCOC(=O)c1ccc(NC(=O)COC)cc1	-17%	-2%	?	0%	-31%	51%[activator]	-1.1%	-5%
NS(=O)(=O)c1ccc(NC(=S)NCC2CCCO2)cc1 (stereo unspecified)	5%	-17%	19%	-16%	10%	-4%	-0.3%	-8%

Screening data deposited in PubChem BioAssay by National Center for Advancing Translational Sciences (NCATS).
